miR-21 reporter – raises the signal of a miR-21 reporter | HeLa miR-21 FLuc reporter, luciferase, 48 h | Potency, µM (titrated, usually from 38.3 µM), for the others: top-dose reporter change, positive = more light | 340,000 tested, under 10 active; active = well fitted rising curve with a large enough effect; inconclusive = small, poorly fitted or top-dose-only effect; inactive = no such curve, though single readings can be large or run the other way;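 note: % of control where 0% means no effect; miR-21 action dims this reporter so a rising signal means less miR-21 action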
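Compounds were titrated across several concentrations (up to approximately 40 uM) and incubated 48 hours with HeLa miR-21-FLuc reporter cells (miR-21 target sequence downstream of FLuc, endogenous miR-21). Readout was firefly luciferase luminescence after lytic detection reagent.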
Starred values were filed as active, the others as inactive; ? = inconclusive.

SMILES	miR-21 reporter
Cc1c(C(=O)NCCN(C)C)sc2nc3n(c(=O)c12)CCC3	-1%
CCc1ccccc1NC(=O)C1CCCN(S(=O)(=O)c2cccc3nsnc23)C1 (stereo not given)	9%
COc1ccc(Cl)cc1S(=O)(=O)NCc1ccc2c(c1)CCN2C(=O)c1cccc(C)c1	?
COc1cccc(CNC(=O)C(NS(=O)(=O)c2ccc3c(c2)oc(=O)n3C)C(C)C)c1 (stereo not given)	4%
CCc1cccc(CC)c1NC(=O)c1c(C)oc2ccc(O)c(CN3CCOCC3)c12	-4%
CCC(Cn1nnc2ccccc2c1=O)NC(=O)Nc1ccc(C)cc1 (stereo not given)	17%
CC(Sc1nccn1C)C(=O)Nc1ccccc1C#N (stereo not given)	0%
CCc1cccc(OCC(=O)Nc2ccc(S(=O)(=O)Nc3ncccn3)cc2)c1	5%
COc1ccc(OC)c(CNC(=O)c2ccc(N3Cc4ccccc4Oc4ncccc43)s2)c1	9%
COc1ccc(CN2CCCN(CC(=O)Nc3ccc4c(c3)OCCO4)S2(=O)=O)cc1	7%
COc1cc2nc(NCc3ccc(C)cc3)n3nc(-c4ccccc4)nc3c2cc1OC	-1%
COc1ccc(CN(Cc2ccco2)c2cnc(S(C)(=O)=O)nc2C(=O)Nc2ccc(F)cc2)cc1	-5%
CCOC(=O)c1ccc(NC(=O)CC2C(=O)N(c3cccc(C)c3)C(=O)N2CCOC)cc1 (stereo not given)	-7%
COc1ccc(CNC(=O)CN(C)c2nn3c(=O)cc(C)nc3s2)cc1	-3%
Cc1ccc(CCNC(=O)c2ccc(CSCc3ccc(C)cc3)o2)cc1	12%
Cc1ccc(NC(=O)C2CCN(S(=O)(=O)c3cccc4nonc34)CC2)cc1C	-17%
COc1ccc(C(=O)NCC(c2ccc(N(C)C)cc2)N2CCc3ccccc32)cc1OC (stereo not given)	5%
Cc1ccccc1Cn1c(=O)n(Cc2ccco2)c(=O)c2oc3ccccc3c21	2%
CCN1CCN(C(=O)c2ccc3c(c2)N(Cc2cccc(F)c2)C(=O)c2ccccc2S3)CC1	0%
CCOC(=O)c1c(NC(=O)COc2c(C)cc(Cl)cc2Cl)sc2c1CCCC2	-3%
COc1ccccc1CNC(=O)C1CCN(S(=O)(=O)c2c(C)noc2/C=C/c2c(C)cc(C)cc2C)CC1	-3%
O=C(Nc1cccc(OCc2cc(=O)n3ccccc3n2)c1)Nc1cccc(C(F)(F)F)c1	-23%
COc1ccc(C(=O)NCC(c2ccc(N(C)C)cc2)N2CCCC2)cc1 (stereo not given)	-2%
COc1ccc(NC(=O)CSc2nc(-c3cccc(C)c3)[nH]c2-c2ccccc2)cc1OC	?
CCS(=O)(=O)Nc1cc(-c2cn3ccc(C)cc3n2)ccc1C	-54%

(list continues)
SMILES	miR-21 reporter
Cc1ccc(-n2ncc3c(N4CCC(C(N)=O)CC4)ncnc32)cc1	-41%
Cc1nc2ccn(Cc3ccccc3)c(=O)c2cc1C(=O)N1CCN(c2ccccc2F)CC1	0%
COc1cc(CN(C(=O)c2ccccc2Br)c2ccccn2)cc(OC)c1OC	25%
CCOC(=O)C1CCCN(S(=O)(=O)c2cc(-c3cc(C)no3)ccc2OC)C1 (stereo not given)	14%
COc1cccc(OC)c1C(=O)Nc1cccc(-c2nc3cc(C)cc(C)c3o2)c1	4%
Cc1cccc(-c2noc(CNC(=O)c3ccc(C)cc3C)n2)c1	-1%
CCOCCCn1c(=N)c(C(=O)NCC2CCCO2)cc2c(=O)n3cc(C)ccc3nc21 (stereo not given)	-6%
CCOc1ccccc1NC(=O)CSc1nc2c(oc3ccccc32)c(=O)n1Cc1ccco1	-9%
CCN(CC)c1ccc(C2C(C(=O)Nc3ccccc3C)=C(C)Nc3ncnn32)cc1 (stereo not given)	-1%
COc1ccc(CCNC(=O)CCCn2c(=O)c3ccccc3n(CC(=O)Nc3ccc(C)cc3Cl)c2=O)cc1OC	13%
CC1CCc2onc(C(=O)N3CCN(c4ccc(F)cc4)CC3)c2C1 (stereo not given)	4%
CCOC(=O)c1cc(S(=O)(=O)NCc2ccc(Cl)cc2)[nH]n1	-1%
Cc1ccc(NC(=O)C2CCN(S(=O)(=O)c3cccc4nonc34)CC2)c(Cl)c1	5%
COc1ccc(/C=C/C(=O)N2CCC(c3nc4ccccc4o3)CC2)cc1	-20%
CC(=O)N1CCc2cc(S(=O)(=O)NC(Cc3ccccc3)C(=O)Nc3cc(C)cc(C)c3)ccc21 (stereo not given)	-10%
O=C(CCC(=O)c1ccccc1)Nc1ccc(F)c(Cl)c1	-2%
Cc1c(-c2ccc(Cl)cc2)c(=O)oc2ccc(OC(=O)N3CCOCC3)cc12	0%
CC(CNC(=O)Cc1ccc(NC(=O)N2CCSc3ncccc32)cc1)c1ccccc1 (stereo not given)	8%
CC1CCCCN1c1csc2ccc(F)cc2c1=O (stereo not given)	-14%
COc1ccc(NC(=O)Cn2c(=O)n(CCCCCC(=O)NCc3ccc4c(c3)OCO4)c(=O)c3sccc32)cc1Cl	-7%
CCOc1ccccc1NC(=O)C(Cc1ccccc1)NS(=O)(=O)c1ccc2c(c1)oc(=O)n2C (stereo not given)	0%
Cc1ccc2ncc(C(=O)N3CCN(c4ccccc4F)CC3)c(=O)n2c1	-6%
Cn1c(=O)oc2cc(S(=O)(=O)NC(Cc3ccccc3)C(=O)Nc3ccc(F)cc3)ccc21 (stereo not given)	-1%
COc1cc(NC(=O)C2CCN(c3cnc4ccccc4n3)CC2)cc(OC)c1OC	-10%
CCOc1ccc(NC(=O)Cn2c(=O)oc3cc(S(=O)(=O)N4CCCCCC4)ccc32)cc1	3%

The listing continues:
SMILES	miR-21 reporter
Cc1ccccc1NC(=O)Cn1cc(C(=O)c2ccco2)c2ccccc21	2%
COc1ccc(C2C(C(=O)Nc3ccccc3)=C(C)Nc3nc(-c4ccc(Cl)cc4)nn32)cc1 (stereo not given)	-5%
CN1c2ccc(Cl)cc2-c2nc(SCC(=O)NCc3ccc(F)cc3)ncc2S1(=O)=O	-2%
CCc1ccc(CNC(=O)c2ccc3c(c2)nc2n3CCOC2)cc1	-4%
COc1ccc(-c2ccc(=O)n(CC(=O)Nc3ccccc3C(F)(F)F)n2)cc1	-19%
COc1cc(Cl)c(C)cc1Nc1ncnc2c1nc1n2CCCC1	-9%
CCOc1ccc(NC(=O)Cn2nnc(C(=O)OC)c2C(=O)OC)cc1	4%
CCOc1ccccc1NC(=O)C(CC)n1c(C(=O)OC)cc2occc21 (stereo not given)	10%
Cc1cc(C)c2c(CC(=O)Nc3nnc(CC(C)C)s3)coc2c1	3%
CCOc1ccc(N(C)C(=O)c2oc(=O)c3ccccc3c2-c2ccccc2)cc1	20%
COc1ccc(NC(=O)C2CCCN(S(=O)(=O)c3cccs3)C2)cc1 (stereo not given)	0%
Cn1c(=O)c2c(SCC(=O)Nc3ccc(F)cc3F)nc(C3CCCC3)nc2n(C)c1=O	-1%
O=C(Nc1cccc(-c2nc3ncccc3o2)c1)c1ccc(-c2cccc(Cl)c2Cl)o1	-7%
CCN1CCc2c(sc(-n3cccc3)c2C(CCC(C)C)NC(=O)NCCC(=O)OC)C1 (stereo not given)	1%
COc1ccc(NC(=O)c2sc3nc(-c4ccc(OC)cc4)cc(C(F)(F)F)c3c2N)cc1	-1%
CCc1cccc(C)c1NC(=O)CN(C)S(=O)(=O)c1cccc2nsnc12	-5%
O=C(CSc1nc2ccccc2nc1Cc1ccc(Cl)cc1)Nc1ccc2c(c1)OCO2	5%
O=C(CCn1c(=O)c2sccc2n(Cc2cccc(F)c2)c1=O)NCc1ccc2c(c1)OCO2	-1%
COc1ccc(CCNC(=O)c2ccc3[nH]c(C)c(C)c3c2)cc1OC	3%
O=C(NCc1ccc(Cl)cc1)c1cc2cccc3c2n1CCS3	17%
CCNC(=O)CCSc1nnc(-c2ccc(O)cc2)o1	-15%
Cc1cc(C)cc(NC(=O)c2sc3nc(-c4ccccc4)cn3c2C)c1	20%
CCc1ccc(Sc2cc(C(=O)NCc3cccc(OC)c3)c3ccccc3n2)cc1	21%
COc1cccc(COC(=O)c2ccc(-c3nnn(Cc4ccccc4)n3)cc2)c1	1%
CC(=O)c1cccc(NC(=O)c2ccc(Cl)c(S(=O)(=O)N3CCOCC3)c2)c1	14%

(next part)
SMILES	miR-21 reporter
Cc1ccc(CNC(=O)Cn2c3ncccc3c(=O)n2-c2ccccc2)cc1	-7%
Cc1ccc(C)c(NC(=O)N2CCc3cc(S(=O)(=O)N4CCC(C)CC4)ccc32)c1	-5%
O=C(c1cc(S(=O)(=O)N2CCCC2)c[nH]1)N1CCN(c2cccc(Cl)c2)CC1	11%
Cc1ccc(/C=C/C(=O)Nc2nc(-c3cccs3)ns2)cc1	-1%
COC(=O)Cc1c(C)c2cc3c(c(C)c2oc1=O)OCN(CCc1ccc(F)cc1)C3	-14%
Cc1cccc(C2NC(=O)c3c(sc4c3CCN(C)C4)N2)c1O (stereo not given)	-44%
COc1ccc(-c2noc(CSc3nc4ccc(C)cc4[nH]3)n2)cc1	15%
Cc1ccc(-n2ncc(C(=O)N3CCN(C4CCCCC4)CC3)c2C2CCN(C(=O)OC(C)(C)C)CC2)cc1	2%
O=C(CCCCCn1c(=O)[nH]c2ccccc2c1=O)N1CCN(c2ccc(Cl)cc2)CC1	?
COc1cccc(CNC(=O)CN2C(=O)COc3ccc(S(=O)(=O)Nc4ccccc4)cc32)c1	13%
CCCN(Cc1cccs1)C(=O)Nc1ccc(Br)cc1F	-4%
CCOc1ccccc1NC(=O)c1nnn(CC(=O)Nc2ccccc2CC)c1N	-11%
COc1ccc(-c2[nH]nc3nc(-c4cc(OC)c(OC)c(OC)c4)cc(C(=O)O)c23)cc1	-58%
CCN(C(=O)Cn1c(=O)oc2cc(S(=O)(=O)N3CCCCCC3)ccc21)c1cccc(C)c1	12%
Cc1cc(C)cc(NS(=O)(=O)c2ccc3[nH]cc(C(=O)NCc4ccccc4Cl)c(=O)c3c2)c1	26%
CCOc1ccccc1CNC(=O)c1c(C)oc2ncnc(N3CCOCC3)c12	-5%
O=C(Nc1ccc(OC(F)(F)F)cc1)C1CCCN(S(=O)(=O)c2ccc(Br)s2)C1 (stereo not given)	3%
O=C(Nc1cc(Cl)ccc1Cl)c1cc(S(=O)(=O)NCCc2ccccc2)ccc1F	1%
COc1ccc(-n2cc(C(=O)NCc3ccc(Cl)cc3)c3ccccc3c2=O)cc1	-5%
COc1ccc(NC(=O)CCc2nc3c(C)nn(-c4ccc(C)cc4)c3n(C)c2=O)c(OC)c1	-2%
CCC(C)c1ccc2oc(-c3ccc(NC(=O)c4cc5ccccc5o4)cc3)nc2c1 (stereo not given)	0%
Cc1c(Cl)cccc1NC(=O)Cn1cc2c(n1)CCCC2	-8%
O=C(Nc1ccccc1F)C(Cc1ccccc1)n1cccc1 (stereo not given)	-4%
COc1ccc2c(c1)CC(C(=O)NCCCN1CCN(c3ccc(F)cc3)CC1)CO2 (stereo not given)	12%
Cc1ccc(C(=O)NCC(c2cccs2)S(=O)(=O)c2cccs2)cc1 (stereo not given)	-5%

Sorted by molecular weight (lowest first): some entries from above
SMILES	miR-21 reporter
CCCN(Cc1cccs1)C(=O)Nc1ccc(Br)cc1F	-4%
Cc1ccc(CNC(=O)Cn2c3ncccc3c(=O)n2-c2ccccc2)cc1	-7%
CCOc1ccccc1CNC(=O)c1c(C)oc2ncnc(N3CCOCC3)c12	-5%
O=C(c1cc(S(=O)(=O)N2CCCC2)c[nH]1)N1CCN(c2cccc(Cl)c2)CC1	11%
Cc1ccc(C)c(NC(=O)N2CCc3cc(S(=O)(=O)N4CCC(C)CC4)ccc32)c1	-5%
COc1ccc(-c2[nH]nc3nc(-c4cc(OC)c(OC)c(OC)c4)cc(C(=O)O)c23)cc1	-58%
COc1ccc(NC(=O)CCc2nc3c(C)nn(-c4ccc(C)cc4)c3n(C)c2=O)c(OC)c1	-2%

A different layout for 3 compounds above:
> COc1ccc(-c2noc(CSc3nc4ccc(C)cc4[nH]3)n2)cc1
  miR-21 reporter = 15%
> Cc1ccc(-n2ncc(C(=O)N3CCN(C4CCCCC4)CC3)c2C2CCN(C(=O)OC(C)(C)C)CC2)cc1
  miR-21 reporter = 2%
> O=C(CCCCCn1c(=O)[nH]c2ccccc2c1=O)N1CCN(c2ccc(Cl)cc2)CC1
  miR-21 reporter = ?

Following part:
SMILES	miR-21 reporter
CCC(Sc1nc2c(sc3ccccc32)c(=O)n1CCCC(=O)NC1CCCC1)C(=O)Nc1cccc(OC)c1 (stereo not given)	-13%
Cc1nc2c(c(C)c1CCC(=O)NCc1ccc(Cl)cc1)c(=O)n(C)c(=O)n2C	0%
COc1ccc(N2CCN(c3nc4ccc(C)cc4n4nnnc34)CC2)cc1	-3%
Cc1cccc(N(CC(=O)NCCSCc2cccc(Cl)c2)S(=O)(=O)c2ccccc2)c1C	20%
COc1cccc2c1cc1c(=O)n(CC(=O)N3CCN(c4cccc(Cl)c4)CC3)nc(C)n12	3%
COc1ccc(CNC(=O)CN(C)S(=O)(=O)c2ccc3nc(C)sc3c2)cc1	0%
COC(=O)C1=C(C)NC(=O)NC1c1cn(-c2ccccc2)nc1-c1ccc(OC)c(Cl)c1 (stereo not given)	-8%
CCC(=O)N1CCc2cc(Br)cc(S(=O)(=O)NCc3cccc(OC)c3)c21	7%
Cc1ccc(NC(=O)Cn2c(=O)nc(-c3ccccc3)c3ccccc32)cc1	4%
Cn1c(=O)c2c(SCC(=O)NCC3CCCO3)nc(-c3ccccc3F)nc2n(C)c1=O (stereo not given)	2%
Cc1ccc(-c2cn3c(n2)sc2cc(C(=O)NC(C)C45CC6CC(CC(C6)C4)C5)ccc23)cc1 (stereo not given)	-6%
Cc1ccc(C(=O)NCC(c2ccc3c(c2)OCO3)N2CCN(c3ccc(F)cc3)CC2)cc1 (stereo not given)	29%

These rows are one share of the data (hit frequency here may not be typical).
